# Screening data from PubChem BioAssay.
# Menin-MLL FL inh = menin-MLL binding inhibition, fluorescein peptide; Fluorescence polarization, fluorescein-MLL peptide displacement from menin; FP activity change, % at 61.4 µM; 290,000 tested, under 10 active; AID 1766; inconclusive = falling polarisation curve, or a change in total fluorescence; inactive = total fluorescence flat and polarisation flat or rising; no compound was filed as active; the % refers to the polarisation; negative = inhibition;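 further: % of control where 0% means no effect; inhibitors lower the polarisation; unlabelled MLL peptide was the positive control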
# TRPML1 agonist = activates the human TRPML1 channel; 0.12% of 410,000 active; TRPML1-expressing cells, Ca2+ dye fluorescence, FDSS; host cell line not named in the record; reference of the full effect not given here; Q9GZU1; activation, % (test concentration not listed); in the data active = activation above about 50%; inconclusive = about 30% to 50%; inactive = below about 30%; further: 0% is about no effect; the text of the record puts the active cut at 80%
# Target sequence (Q9GZU1 whole entry, looked up): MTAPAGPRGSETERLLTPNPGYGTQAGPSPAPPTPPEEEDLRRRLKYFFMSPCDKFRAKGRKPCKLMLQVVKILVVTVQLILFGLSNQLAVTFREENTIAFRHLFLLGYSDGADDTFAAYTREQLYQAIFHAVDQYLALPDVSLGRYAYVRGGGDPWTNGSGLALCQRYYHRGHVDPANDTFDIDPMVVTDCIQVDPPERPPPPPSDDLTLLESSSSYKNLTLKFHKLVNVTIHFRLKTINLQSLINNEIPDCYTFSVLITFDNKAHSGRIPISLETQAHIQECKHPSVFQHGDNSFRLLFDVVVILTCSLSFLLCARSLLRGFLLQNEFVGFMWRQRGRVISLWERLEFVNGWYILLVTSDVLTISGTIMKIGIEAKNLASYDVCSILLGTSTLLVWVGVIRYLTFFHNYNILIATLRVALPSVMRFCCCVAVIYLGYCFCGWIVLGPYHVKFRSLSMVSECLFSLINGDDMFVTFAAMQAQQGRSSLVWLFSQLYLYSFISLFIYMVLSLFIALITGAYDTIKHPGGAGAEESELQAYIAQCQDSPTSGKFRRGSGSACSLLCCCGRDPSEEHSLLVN
#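 Tetracycline-induced TRPML1-DL cells are seeded and incubated overnight before loading with a no-wash Ca2+ dye and quencher. Agonist activity is taken from the 110 s fluorescence read following compound pin-transfer on an FDSS, before EC80 54-4 challenge.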
# PINK1 modulator = modulators of PINK1 expression; Potency, µM (series often up to 76.6 µM), for the others: at the highest dose activation (PINK1 increase), usual class: activators; 0.2% of 410,000 active; PINK1 immunofluorescence, high-content cytometry, 24 h; AID 624263; active = well fitted activation curve with a large enough effect; inconclusive = small, poorly fitted or top-dose-only effect; inactive = flat fitted curve, though single readings scatter; cell line not stated here;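 further: potency means the concentration at half of the fitted maximal effect; % of control where 0% means no effect; nearly all actives have a fitted effect of over 65% in size; a mitochondrial uncoupler was the plate control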
#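 Readout is PINK1 immunofluorescence, quantified alongside mitochondrial, cell and nuclear markers by laser-scanning microplate cytometry. Cells from a stable line were exposed to compound titrations (5 concentrations) for 24 hours, with CCCP controls.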
# TRPML1 inh = blocks the human TRPML1 channel | TRPML1-inducible cells, Ca2+ dye fluorescence, FDSS; stronger effect = lower value; inhibition of EC80 agonist-evoked calcium signal | activity change, negative = inhibition, % (no concentration beside the values) | 0.02% of 390,000 active | AID 624415; in the data active means activity change below about -50%; inconclusive means about -30% to -50%; inactive means above about -30%;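 further: stimulus is agonist 54-4 at its EC80 concentration; on the % scale 0 is the no-effect control and ±100 the full control effect; compound concentration not given in the record; the text of the record puts the active cut at -80%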
#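 Calcium fluorescence in TRPML1-DL cells induced overnight with Tet: a 110 s read after compound pin addition, then a 110 s antagonist read after challenge with 54-4 at 4 uM final (EC80).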
# Sfp inh = inhibitors of Bacillus subtilis Sfp phosphopantetheinyl transferase; Biochemical Sfp PPTase activity, qHTS; Potency, µM, for inactives: max response, negative = inhibition, hits mostly inhibitors; 3.5% of 310,000 active; AID 1490; active means well fitted inhibition curve with a large enough effect; inconclusive means small, poorly fitted or top-dose-only effect, or another doubt; inactive means no such curve, though single readings can be large or run the other way;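 further: the enzyme is Sfp with the accession as filed and its product quenches rhodamine fluorescence; potency means the concentration at half of the fitted maximal effect; 0% = enzyme reaction without inhibitor and -100% = no enzyme wells; top concentration of the series not given in the record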
#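 Buffer: 50 mM Hepes-Na pH 7.6, 10 mM MgCl2, 0.01% Nonidet P-40, 0.01% BSA. Enzyme 15 nM, pre-exposed to compound 15 min; substrates then added and fluorescence change tracked over 30 min.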
# ClpP mod = qHTS Assay for Activators of ClpP | purified B. subtilis ClpP, FRET peptide cleavage, 20 min | AID 651965, 2013 | Potency, µM (series often up to 57.5 µM), for inactives: at the highest dose activity change, negative = active | 1.9% of 340,000 active; active = well fitted falling curve with a large enough effect; inconclusive = small, poorly fitted or top-dose-only effect; inactive = no such curve, though single readings can be large or run the other way; further: potency means the concentration at half of the fitted maximal effect; the source files actives as falling curves though it sought activators and does not explain the sign; nearly all actives have a fitted effect of over 65% in size; many hits overshoot -100%
# Target sequence (P80244 whole entry, looked up): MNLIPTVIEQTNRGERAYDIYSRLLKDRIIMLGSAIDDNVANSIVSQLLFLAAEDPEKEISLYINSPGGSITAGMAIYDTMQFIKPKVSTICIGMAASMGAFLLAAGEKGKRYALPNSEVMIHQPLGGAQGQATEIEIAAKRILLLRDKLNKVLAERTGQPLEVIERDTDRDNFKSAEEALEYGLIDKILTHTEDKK
#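 Purified B. subtilis ClpP, 10 microg/mL final in Tris/HCl pH8 with KCl, BSA, glycerol and Tween-20, cleaved an Abz/nitrotyrosine-quenched decapeptide. Fluorescence (ex 320, em 430) was read at 0 and 20 min at room temperature. Delta was normalized to 5.8 microM ADEP and DMSO/no-enzyme controls.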
# TRPV1 PAM = enhances activation of the human vanilloid receptor TRPV1. TRPV1-expressing cells, Fluo-8 calcium influx, capsaicin EC20 potentiation; host cell line not named in the record; control for the full effect not named in the record. potentiation, % at 8.33 µM. 0.02% of 320,000 active. AID 540277; active means potentiation above 80%; inconclusive means 30% to 80%; inactive means below 30%; further: 0% is about no effect
#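 TRPV1-expressing cells were cultured overnight at 35.5C and loaded with Fluo-8 calcium dye for 40 to 90 min at room temperature. After a 10 s baseline, compound was added and calcium influx was read kinetically for 3 min (ex 480/em 520 nm).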
# An asterisk follows results filed as active; ? = inconclusive; . = no result given; [ ] = another dose, or the depositor's remark.
SMILES,Menin-MLL FL inh,TRPML1 agonist,PINK1 modulator,TRPML1 inh,Sfp inh,ClpP mod,TRPV1 PAM
Cc1ccccc1OCCSc1nnc(-c2cccnc2)n1N,-0.3,0.8,0.9%,5,2%,-3.1%,0
O=C(CN1C(=O)C2(SCC(=O)N2c2ccc(F)cc2)c2ccccc21)NCCc1ccccc1 (configuration not stated),.,1.4,-5.7%,-19,.,-1.4%,.
CCC(C)c1ccc(OCC(=O)Nc2ccc3[nH]c(=O)[nH]c3c2)cc1 (configuration not stated),.,0.1,-0.9%,-13,7%,0.8%,21
CCOC(=O)c1c(C)[nH]c(C(=O)COC(=O)C23CC4CC(CC(Cl)(C4)C2)C3)c1C,1.5,1.8,0.3%,-3,5%,-4.1%,-60
NC(=O)NCc1cccnc1,-5.6,0.6,-1.9%,21,14%,.,6
COc1cc(/C=N/NC(=S)Nc2cccnc2)cc(OC)c1O,2.4,0.2,3.3%,-10,13%,.,5
O=C(NNS(=O)(=O)c1ccccc1)c1cccs1,1.1,-1.0,-0.4%,-16,-3%,-2.4%,-2
Cn1c(-c2cccc(Br)c2)cnc1NCc1cccnc1,3.5,0.4,-1.5%,-18,?,-1.4%,?
CN=C1S/C(=C\c2ccc(OCC(=O)OC)c(OC)c2)C(=O)N1C,-1.9,0.2,1.6%,-10,13%,-3.5%,0
COC(=O)c1c[nH]c(=S)n1Cc1ccccc1,.,-0.2,4.3%,8,.,.,.
CCOC(=O)c1[nH]c2c(c1Cc1ccccc1OC)C(=O)CC(c1ccccc1)C2 (configuration not stated),.,1.7,2.3%,25,.,-3.9%,.
Cc1c(C(=O)N2CCN(S(=O)(=O)c3ccc(F)cc3)CC2)oc2ccccc12,.,4.2,-2.0%,-6,.,-1.3%,-13
O=C(COc1cccc2c1CCNC2=O)Nc1cccc(C(F)(F)F)c1,.,-0.3,-0.3%,7,.,-1.1%,-17
O=C(Nc1cccc(F)c1)c1ccc(S(=O)(=O)N2CCCC2)cc1,-0.2,-1.2,0.2%,0,10%,-0.2%,-9
CC(=O)c1ccc(NC(=O)CO/N=C(\C)c2cccs2)cc1,2.4,2.8,1.1%,6,-8%,0.3%,5
CCCN(CC(=O)Nc1ccc(Cl)cc1Cl)C(=O)c1ccc(=O)[nH]c1,.,-0.3,-0.8%,-7,12%,-3.9%,3
O=S1(=O)CC(N2CCCC2)CN1CCc1ccccc1 (configuration not stated),.,-0.7,0.3%,.,.,-3.0%,.
Nc1nc(-c2ccccc2)c(-c2ccccc2)s1,3.5,-1.0,1.0%,4,-15%,-1.0%,3
CSc1nc2sc3c(c2c(=O)n1-c1ccc(C)c(Cl)c1)CCN(C(C)=O)C3,.,1.0,6.0%,9,.,-22%,.
Cc1ccc(S(=O)(=O)NC(C)(C)CSc2nnc(N)s2)cc1,2.6,0.4,-1.7%,-27,4%,-1.7%,-9
CCS(=O)(=O)N1CCC2(CC1)OCCN2S(=O)(=O)c1ccc(C)cc1,.,-0.2,2.3%,-14,.,-0.7%,2
CC(CN1CCCCC1)NC(=O)c1cccs1 (configuration not stated),4.0,-0.6,-0.2%,9,12%,-1.4%,1
CN(c1ccc(C(=O)NCC2CCCO2)cc1)S(C)(=O)=O (configuration not stated),2.6,-0.1,-3.5%[38.3 µM],2,12%,0.8%,1
Cc1cc(C(=O)Nc2ncn[nH]2)ccc1[N+](=O)[O-],.,-0.5,1.2%,12,0%,0.7%,-8
Cc1cc(N2CCOCC2)nc2ccc(NC(=O)CCC(=O)N3CCC(C)CC3)cc12,0.2,1.1,-0.1%,2,13%,28µM*,-4

# Next section
SMILES,Menin-MLL FL inh,TRPML1 agonist,PINK1 modulator,TRPML1 inh,Sfp inh,ClpP mod,TRPV1 PAM
Cn1c(C(=O)OC(C(=O)NC2CCCCC2)c2ccccn2)cc2sccc21 (configuration not stated),2.6,0.8,2.8%,-14,8%,-1.4%,-7
O=C(c1ccc(F)cc1)N(NC(=O)C(O)(c1ccccc1)c1ccccc1)c1ccccc1,1.0,2.0,4.1%,-4,-7%,.,-3
Cc1cc(NC(=O)Cc2ccccc2)no1,6.8,1.2,-1.2%,-17,0%,-3.3%,15
Cc1nc(CS(=O)(=O)c2ccccn2)sc1C(=O)NNC(=O)c1ccc(Cl)cc1,-0.7,-0.5,0.0%,4,11%,1.2%,1
CC(O)(c1ccc(F)c(F)c1)c1nc(-c2cc(F)cc(F)c2)cs1 (configuration not stated),.,-0.6,?,.,.,-0.1%,.
COc1cc(/C=N/N(C)C2=NS(=O)(=O)c3ccccc32)cc(OC)c1OC,-3.0,1.6,6.6%,-20,-3%,3.4%,5
CCOC(=O)c1c(N)sn(-c2ccccc2C)c1=S,0.2,-0.5,2.1%,-12,18µM*,-0.5%,2
O=C(CN1C(=O)CSC1=O)Nc1ccc(N2CCOCC2)cc1,0.0,0.0,0.5%,2,-12%,1.6%,10
O=C(Cn1cc(C(F)(F)F)ccc1=O)NC1CCCC1,.,-0.4,-0.3%,9,.,-0.7%,-23
Cc1ccc(S(=O)(=O)N/N=C/c2ccc(O)c(O)c2)cc1[N+](=O)[O-],-2.6,-0.8,-0.1%,6,?,-0.4%,-1
O=S(=O)(c1cccs1)N1CCN(c2ccccn2)CC1,-2.6,0.0,-1.8%,9,6%,-2.4%,-4
COc1ccc(S(=O)(=O)Nc2ccc3c(c2)[C@H]2C[C@H](CC(=O)NCC4CC4)O[C@@H](CO)[C@H]2O3)cc1,.,-0.5,-1.7%,52,.,-3.5%,.
Cc1ccc(Cl)cc1-n1ncc2c(NCCc3ccccc3)ncnc21,.,-0.6,?,25,.,-5.1%,.
OC(c1ccc(F)cc1)c1ncc(-c2cccc3ccccc23)[nH]1 (configuration not stated),.,-0.6,2.7%,.,.,4.8%,.
CCOc1ccccc1-n1nnnc1SCC(=O)NC(=O)Cc1ccccc1,.,-0.6,1.0%,15,.,25µM*,4
CC(C)(C)c1ccc(OCc2cnc(Cl)s2)cc1,2.0,0.3,14%,-18,-17%,.,-13
O=C1N=C(N2CCOCC2)S/C1=C/c1ccc(-c2ccccc2Cl)o1,-19,-0.3,1.6%,48,-2%,-0.9%,-13
CCc1ccc(NC(=O)CCCc2nnc3n(C(C)CC)c(=O)c4sccc4n23)cc1 (configuration not stated),.,1.5,1.2%,6,.,-4.4%,.
C=CCOc1ccccc1CNc1ccc2[nH]c(=O)[nH]c2c1,-1.2,-0.6,0.4%,4,-6%,.,-2
COc1ccc(C(=O)NNC(=O)CCc2ccccc2OC)cc1,-5.7,5.4,0.8%,17,5%,0.4%,7
O=S(=O)(c1cccc(S(=O)(=O)N2CCCC2)c1)N1CCCCC1,0.5,0.3,-0.5%,-3,7%,.,-8
C/C(CC(=O)Nc1ccccn1)=N\NC(=O)C(=O)Nc1cccc(C)c1,-0.3,-0.9,-0.8%,-10,18%,37%,2
Cc1cccc(-c2nc(C)c(CCNC(=O)C(=O)Nc3c(C)cc(C)cc3C)s2)c1,.,4.9,8.0%,17,.,-15%,.
COc1cccc(CNC(=O)c2ccc3c(c2)S(=O)(=O)N=C2CCCCCN23)c1,.,-0.2,-1.9%,-21,5%,-0.7%,-22
CC(NC(=O)COC(=O)C1CSC2(C)CCC(=O)N12)C12CC3CC(CC(C3)C1)C2 (configuration not stated),-0.9,0.1,1.4%,6,9%,-1.4%,23

# Further entries
SMILES,Menin-MLL FL inh,TRPML1 agonist,PINK1 modulator,TRPML1 inh,Sfp inh,ClpP mod,TRPV1 PAM
COc1ccc(/C=N/N=C2\SC(CC(=O)O)C(=O)N2c2ccccc2)c(OC)c1 (configuration not stated),0.9,-0.2,-1.3%,23,10%,0.3%,1
[O-]/C(=C(\C(=S)Nc1ccc(SC(F)F)cc1)[n+]1cccc(CO)c1)c1ccc(Cl)s1,-0.1,-0.3,4.0%,13,?,.,-2
O=C(O)C(=O)Cc1c[nH]c2ccccc12,?,.,0.7%,.,?,-3.9%,4
CC(=O)N1CCN(C(=O)c2cccc(S(=O)(=O)N3c4ccccc4CC3C)c2)CC1 (configuration not stated),.,0.1,-2.1%,5,.,.,.
O=C(Nc1nnc(CSCc2ccc(F)cc2)s1)c1cccc([N+](=O)[O-])c1,7.1,-0.8,?,3,7%,-1.8%,-3
COc1ccc(-n2c(=O)c3c4c(sc3n(Cc3ccccc3)c2=O)CCC4)c(OC)c1,.,0.6,0.4%,-10,.,0.4%,.
Oc1ccc(-c2nnc(-c3ccc(O)cc3)nn2)cc1,-0.1,0.7,5.9%,-11,12%,-1.0%,2
CCC(Oc1ccccc1OC)C(=O)N1CC(=O)Nc2ccccc21 (configuration not stated),0.4,0.1,-0.5%,34,3%,.,1
CC(=O)N/C(=C\c1ccccc1)C(=O)OC(C)C(=O)c1ccccc1 (configuration not stated),.,-1.2,-0.4%,1,.,0.6%,5
Cc1cc(NC(=O)CSc2nc(C(C)C)nc3c2c(=O)n(C)c(=O)n3C)no1,-1.0,-0.2,0.9%,-7,3%,-1.4%,14
CN(CC(=O)NC1CCCc2ccccc21)C1CCCCC1 (configuration not stated),-1.4,0.1,1.5%,5,-3%,.,4
Nc1nc2n(n1)C(c1ccc(Cl)cc1)CC(c1ccc(F)cc1)N2 (configuration not stated),0.2,1.8,1.9%,25,9%,-2.6%,-4
COc1ccccc1CNC(=O)[C@H](C)NC(=O)C1CCN(C(=O)[C@@H](N)CCSC)CC1,-5.0,.,0.2%,.,2%,1.5%,1
CCCCC(CC)CNC(=O)CCCCCn1c(=O)[nH]c2ccsc2c1=O (configuration not stated),.,-0.3,1.7%,2,.,-1.2%,.
CC(=O)N1CCC[C@@]2(CCN(C(=O)Nc3cccc(C#N)c3)C2)C1,-0.1,.,0.8%,.,16%,.,.
O=C(O)/C(=C\c1ccccc1)c1ccccc1,-0.2,1.0,1.0%,8,17%,.,6

# Ordered by molecular weight (highest first): part of the list above
SMILES,Menin-MLL FL inh,TRPML1 agonist,PINK1 modulator,TRPML1 inh,Sfp inh,ClpP mod,TRPV1 PAM
COc1ccccc1CNC(=O)[C@H](C)NC(=O)C1CCN(C(=O)[C@@H](N)CCSC)CC1,-5.0,.,0.2%,.,2%,1.5%,1
COc1ccc(/C=N/N=C2\SC(CC(=O)O)C(=O)N2c2ccccc2)c(OC)c1 (configuration not stated),0.9,-0.2,-1.3%,23,10%,0.3%,1
Oc1ccc(-c2nnc(-c3ccc(O)cc3)nn2)cc1,-0.1,0.7,5.9%,-11,12%,-1.0%,2
